Mtb growth = Confirmatory growth inhibition assay against Mycobacterium tuberculosis H37Rv, potency (AID 1949); 100,000 compounds, 1.6% hits; one-dose inhibition, % at 10 µg/mL; IC50 in µg/mL for titrated hits; most inactive calls were filed without a number and no value below 0 was filed;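 active means confirmed in a dose series; inconclusive means about 50% or more but not retested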;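 further: bacteria grown 7 days with compound before Alamar blue readout; 0% = untreated bacteria and 100% = reference antibiotic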
* hit, by the source's call; i = inactive; ? = inconclusive.

SMILES | Mtb growth
O=C(Cc1cccc2ccccc12)Nc1ccc(Cl)cn1 | 1%
Cc1cc(NC(=O)c2cc3ccccc3o2)c(C)cc1I | 3%
O=C(CNC(=O)c1cccs1)OCc1ccc(Cl)cc1Cl | i
Cc1sc2ncn(CC(=O)Nc3c(C(C)C)cccc3C(C)C)c(=O)c2c1C | 1%
CCOc1ccc2nc(Nc3nc(C)c(CCC(C)C)c(=O)[nH]3)nc(C)c2c1 | i
CC1CCCCN1C1CC(=O)N(c2ccc(Br)cc2)C1=O (stereo not given) | i
Cc1cc(=O)oc2cc(OCC(=O)c3ccc(Cl)c(Cl)c3)ccc12 | i
CCN(CC)Cc1oc(-c2ccccc2)cc1C(=O)O | i
Cc1cc(C)c(S(=O)(=O)N2CCc3ccccc3C2)cc1C | i
Cc1cc(=O)[nH]c(SC/C=C/c2ccccc2)n1 | 3%
Cc1cc(C)cc(C(=O)N2CCCCCC2)c1 | i
O=C1CC(c2ccsc2)c2ccc3ccccc3c2N1 (stereo not given) | i
N#CC1=C(SCC(=O)Nc2cccc(Cl)c2)NC(=O)CC1c1ccc(F)cc1 (stereo not given) | i
S=C(Nc1ccc(Br)cc1Cl)Nn1cnnc1 | i
CCOc1c(S(=O)(=O)NCc2cccnc2)ccc(Cl)c1Cl | 2%
CCC1CCc2c(sc(NC(=O)C3C4C=CC(C4)C3C(=O)O)c2C(=O)OC)C1 (stereo not given) | i
CCOC(=O)CSc1cccc2cccnc12 | ?
CCCCC(=O)Nc1ccc(C(=O)Nc2cc(OC)c(Cl)cc2OC)cc1 | i
COc1cc([N+](=O)[O-])ccc1NC(=S)NCc1cc(C)n(C)n1 | i
Cc1ccc(C2=NCCNC(C(F)(F)F)=C2)cc1 | i
COc1ccccc1CC1/C(=N\O)C2CCN1CC2 (stereo not given) | i
Cc1cccc(C(=O)Nc2ccc([N+](=O)[O-])cn2)c1 | i
Cc1cc(OCC(=O)NC2C3CC4CC(C3)CC2C4)cc(C)c1Br (stereo not given) | 1.4µg/mL*
O=c1ccc2cc3c(-c4ccc(Cl)cc4)coc3cc2o1 | 1%
CCc1c(C(=O)Nc2cc(C(=O)OC)ccc2C)csc1C | i
CC12COC3(C(=O)Nc4ccccc4F)CC1CCC32C (stereo not given) | i
CCCOc1ccc(NC(=O)CC2C(=O)N(C)C(=S)N2Cc2cccs2)cc1 (stereo not given) | i
CC(Oc1cccc(Cl)c1)C(=O)Nc1cc(Cl)ccc1Cl (stereo not given) | i
Cc1ccc(CN(c2ccc(C(=O)Nc3cccc(C(F)(F)F)c3)cc2)S(C)(=O)=O)cc1 | 2%
Cc1cccc(NC(=O)NNC(=O)c2ccc(OCC(C)C)cc2)c1C | i
COCCNCCCCOc1ccc(C)cc1[N+](=O)[O-] | i
COc1ccc(N2C(=O)CC(NC3CCCC(C)C3C)C2=O)cc1 (stereo not given) | i
Cc1ccc(C)c(NC(=O)CSc2nnc(NC(=O)c3ccccc3F)s2)c1 | i
O=C(Nc1nnc(SCC(=O)N2CCOCC2)s1)c1ccccc1Cl | i
CCOc1ccc(OCCCNCCCOC)cc1 | i
Cc1nnc(NC(=O)c2cccs2)s1 | i
C=CCN1CC(c2nc3ccccc3n2Cc2ccccc2)CC1=O (stereo not given) | i
O=S(=O)(NCc1ccc2c(c1)OCO2)c1ccc(I)cc1 | 10%
CCCCOc1ccc(C(=O)Nc2cccc(C(C)=O)c2)cc1 | 10%
CCOC(=O)c1c(NC(=O)CCCC(=O)O)sc(C)c1-c1ccc(Cl)cc1 | i
COC(=O)CN(C(C)=O)c1nc(C)c(Br)c(OC)n1 | 13%
CCOc1ccc(Nc2nc(-c3ccncc3)cs2)cc1 | 7%
O=C(CCCOc1ccc(Cl)cc1)Nc1ccc2c(c1)OCO2 | 8%
O=C(COc1ccc2ccccc2c1Br)Oc1ccccc1[N+](=O)[O-] | i
Cc1ccc2nc(-c3ccc(NC(=S)NCc4ccco4)cc3)sc2c1 | 32%
CCn1cc(CNC(=O)c2cc(-c3cccnc3)nc3ccc(Br)cc23)c(C)n1 | 0%
COC(=O)c1ccc(NC(=O)Cc2ccc(C)cc2)cc1 | i
COc1ccc(NC(=O)c2cc(C)on2)cc1OC | i
CC(C)c1nnc(NC(=O)CSc2ncc(-c3ccccc3)nn2)s1 | i
O=C(Oc1cccc(-c2cnc3ccccc3n2)c1)c1cccc(S(=O)(=O)N2CCOCC2)c1 | i

Further entries follow.
SMILES | Mtb growth
COC(=O)c1cccc(NS(=O)(=O)c2ccc(OC)c(Br)c2)c1C | i
N#Cc1cn(Cc2ccc(F)cc2)c2ccccc12 | i
O=C(NC12CC3CC(CC(C3)C1)C2)c1cc(I)ccc1Cl | i
O=C(Nc1ccccc1C(F)(F)F)c1cccc(C(=O)Nc2ccccc2C(F)(F)F)c1 | i
COc1cccc2cc(C(=O)NCCC3=CCCCC3)c(=O)oc12 | 1%
CC(C)Cc1nnc(NC(=O)CCCOc2ccccc2)s1 | i
Cc1nn2c(CN(C(=O)CN3CCOCC3)c3ccccc3)nnc2c2ccccc12 | i
COc1ccc(NC(=O)C2CC(c3ccccc3O)=NO2)cc1OC (stereo not given) | i
Cc1ccc(C(=O)NC(C)(COc2nonc2C)COc2nonc2C)cc1 | i
CC1CCc2cc(F)ccc2N1S(C)(=O)=O (stereo not given) | i

Of the compounds above, these have an NH in an aromatic ring.
SMILES | Mtb growth
CCOc1ccc2nc(Nc3nc(C)c(CCC(C)C)c(=O)[nH]3)nc(C)c2c1 | i
Cc1cc(=O)[nH]c(SC/C=C/c2ccccc2)n1 | 3%

Next entries
SMILES | Mtb growth
CCc1ccccc1NC(=O)CSc1nnc(-c2ccc(Cl)cc2)n1Cc1ccccc1 | 3%
O=C(Nc1ccc(Cl)cc1F)c1ccc(Br)o1 | 5%
COc1ccccc1N=C1NC(=O)C([N+](=O)[O-])C(=O)N1 (stereo not given) | i
COC(=O)c1ccccc1NC(=O)NCc1ccccn1 | i
CN(C)c1ccc(C(=O)OCc2ccc(Br)cc2)cc1 | i
CCc1ccc(N2CC(C(=O)Nc3cccc([N+](=O)[O-])c3)CC2=O)cc1 (stereo not given) | 2%
CCC(C)(C#CCN1CCCC1)OCCC#N (stereo not given) | 2%
COc1ccc(NC(=O)CO/N=C(\N)c2nonc2N)cc1Cl | i
Cc1nc(-c2ccc(Br)cc2)[nH]c(=O)c1C | 0%
Cn1c(COc2ccccc2)nnc1SCC(=O)Nc1ccc2c(c1)OCCO2 | 1%

Five successive entries from above, quoted:
SMILES | Mtb growth
CCc1ccc(N2CC(C(=O)Nc3cccc([N+](=O)[O-])c3)CC2=O)cc1 (stereo not given) | 2%
CCC(C)(C#CCN1CCCC1)OCCC#N (stereo not given) | 2%
COc1ccc(NC(=O)CO/N=C(\N)c2nonc2N)cc1Cl | i
Cc1nc(-c2ccc(Br)cc2)[nH]c(=O)c1C | 0%
Cn1c(COc2ccccc2)nnc1SCC(=O)Nc1ccc2c(c1)OCCO2 | 1%

(cont.)
SMILES | Mtb growth
Cc1ccc(S(=O)(=O)N(C)CC(=O)N2CCc3ccccc32)cc1 | 3%
O=C(c1ccc(NC(=S)NCc2ccc(Cl)cc2)cc1)N1CCOCC1 | i
Cc1cc(Cl)ccc1OC(C)C(=O)Nc1ccc(F)cc1F (stereo not given) | i
CC(=O)c1c(C(C)=O)c(C)n(-c2ccc(C)cc2C)c1C | i
O=C(NCC1CCCO1)C1CC(=O)N(c2ccc(Br)cc2)C1 (stereo not given) | i
Cc1ccc(-c2cc(C(F)(F)F)c3c(N)c(C#N)sc3n2)cc1 | 0%
Cc1ccc2nc(-c3ccncc3)cc(C(N)=O)c2c1 | i
COC(=O)c1ccc(NC(=O)COc2ccc(-c3ccc(C#N)cc3)cc2)cc1 | 0.41µg/mL*
Cc1ncc([N+](=O)[O-])n1Cc1cccc2ccccc12 | 3%
CC(=O)c1cccc(NC(=O)c2csc3c2CCCC3)c1 | 9%
COCc1cc(C)nc2sc(C(=O)Nc3ccccc3C(=O)OC)c(N)c12 | i
O=C(NC1CCCCC1)c1cc(Br)ccc1Cl | i
CC1=C(C(=O)Nc2cc(C)cc(C)c2)C(c2ccccc2F)NC(=S)N1 (stereo not given) | i
CC1(C)CC(=O)C2=C(C1)OC(N)=C(C#N)C21CCN(C(=O)OCc2ccccc2)CC1 | i
Cc1ccc(C23OC(=O)C(C)(C)C2OC(=O)C3(C)C)cc1 (stereo not given) | i
CCOc1ccccc1N1CCN(S(=O)(=O)c2cccc3nsnc23)CC1 | i
Cc1ccc(S(=O)(=O)N(C)CCCC(=O)NCc2ccc3c(c2)OCO3)cc1 | ?
CS(=O)(=O)N(Cc1ccco1)CC(O)Cn1c2ccccc2c2ccccc21 (stereo not given) | i
CCc1cccc(OCC(=O)Nc2ccc3c(c2)OCCO3)c1 | i
CN1CCN(C(=S)NC(=O)c2ccccc2Cl)CC1 | i
CS(=O)(=O)N(CC(=O)Nc1cccc([N+](=O)[O-])c1)c1cccc(C(F)(F)F)c1 | i
COc1ccccc1N1C(=O)c2ccc3c4c(ccc(c24)C1=O)CC3 | i
Cc1cccc(OCC(=O)Nc2ccc(OC(C)C)cc2)c1 | 38%
COc1ccccc1C(=O)Nc1ccccc1C(=O)Nc1ccccc1 | i
CC(C)OCCCNC(=O)Cc1ccc(Cl)cc1 | i
COc1ccc(Cl)cc1C(=O)NNC(=S)NC1CCCC1 | 3%
Cc1ccccc1N1CCN(c2ncnc3c2cnn3Cc2ccc(Cl)cc2)CC1 | 22%
CC(C)C(=O)Nc1ccc(C(=O)NNC(=O)CCc2ccccc2)cc1 | i
C=CCN1C(=O)C(O)(CC(=O)c2ccc3c(c2)OCCO3)c2ccccc21 (stereo not given) | 0%
COc1cc(CNc2ccc(N3CCOCC3)cc2)ccc1OCc1ccc(Cl)cc1Cl | i
Cc1ccc(S(=O)(=O)N(CC(=O)Nc2ccc(F)cc2F)c2ccc(Cl)cc2)cc1 | i
O=C(C1c2ccccc2Oc2ccccc21)N1CCc2ccccc2C1 | 6%
COc1cc(S(=O)(=O)N2CCN(c3ccccc3OC)CC2)c(C)cc1C | 0%
COc1ccc(CCNCc2ccc(OC)c(OC)c2OC)cc1 | i
COc1ccc(-c2c3c(=O)n(C)c(=O)n(C)c3c3c(C(F)(F)F)nc4ccccc4n23)cc1 | i
O=C(Cn1c(SCc2ccccc2)nc2ccccc21)N1CCOCC1 | i
N#Cc1ccc(C(=O)Nc2cccc3cccnc23)c(F)c1 | i
COCCn1c(C)cc(C(=O)CSc2nnc3cc(C)c4ccccc4n23)c1C | i
O=C(Cc1c(F)cccc1Cl)n1nnc2ccccc21 | i
COc1cc(CNCCO)ccc1OC1CCCC1 | i
CCOC(=O)C1C(=O)CC(C)(O)C(C(=O)OCC)C1c1cccs1 (stereo not given) | i
CCNc1cc(N2CCN(C(=O)c3cccc(Br)c3)CC2)ccc1[N+](=O)[O-] | i
S=C(Nc1ccccc1)N(Cc1ccccc1)CC1OCCc2ccccc21 (stereo not given) | 6%
C=CCNC(=O)c1cc(Cl)cc(Cl)c1NC(=O)c1ccc(Cl)cc1Cl | i
CCOC(=O)Cc1csc(NC(=O)c2cccnc2)n1 | 5%
OCCNCc1ccc(OCc2ccccc2)cc1 | i
COC(=O)Cc1ccc(NC(=S)N2CCN(c3ccccn3)CC2)cc1 | i
c1ccc(-c2csc(N3CCOCC3)n2)cc1 | i
Oc1ccccc1/C=N/N1CCN(C(c2ccccc2)c2ccccc2)CC1 | i
CN(CCCOc1cccc(Cl)c1Cl)Cc1ccccc1 | i

The results go on:
SMILES | Mtb growth
CC(C)Oc1ccc(N2CC(C(=O)Nc3ccccc3I)CC2=O)cc1 (stereo not given) | 2%
Clc1ccc(OCCN2CCCCC2)cc1Cl | i
CCCCc1ccc(-n2nc3cc(Cl)c(NC(C)=O)cc3n2)cc1 | i
COc1ccc(OC)c(NC(=O)C(=O)O)c1 | i
Cc1c(NC(=O)c2cccc(I)c2)ccc([N+](=O)[O-])c1C | i
CCOC(=O)C1=C(c2ccccc2)Nc2nc(C)nn2C1c1cccnc1 (stereo not given) | i
O=C(O)c1cccc(NS(=O)(=O)c2cccc(C(F)(F)F)c2)c1 | i
O=C(Nc1cccnc1)c1ccc(-c2cc3ccccc3oc2=O)cc1 | i
O=C(Nc1cccc(C(F)(F)F)c1)c1ccc(N2CCCCCC2)c([N+](=O)[O-])c1 | i
Cc1ccc(OCCNCCO)c(Br)c1 | 0%
O=C(NC(=S)Nc1ccc(Cl)c(-c2nc3ccccc3s2)c1)c1cc2ccccc2o1 | i
CCc1c(C)c2ccc(OCC(=O)C(C)(C)C)cc2oc1=O | 3%
O=C(NCCSCc1ccccc1)c1ccc([N+](=O)[O-])cc1 | i
Cc1cccc(C(=O)Nc2nc3c(s2)CC(C)CC3)c1 (stereo not given) | 11%
O=C(Nc1nc(-c2ccc(F)cc2)cs1)C1CC1c1ccccc1 (stereo not given) | 2%
CCCCNCCOCCOc1ccc2ccccc2c1 | i
Cc1ccccc1NC(=O)c1ccc(NC(=O)c2ccccc2Cl)cc1 | i
O=C(NCCCn1ccnc1)C1CC(c2cccc(Br)c2)=NO1 (stereo not given) | 2%
CS(=O)(=O)N(Cc1ccc(Cl)cc1)c1ccc(C(=O)NC2CCCCC2)cc1 | i
COc1cccc2cc(C(=O)N3CCOCC3)c(=O)oc12 | i
C=CCc1cccc(C)c1OCCNC | i
CN(C)c1cccc(C(=O)NNC(=O)NC2CCCCC2)c1 | i
COc1ccc(S(=O)(=O)N(CC(=O)Nc2ccc(NC(C)=O)cc2)Cc2ccccc2)cc1OC | i

Shown as labelled records: entries from further up.
O=C(NCCSCc1ccccc1)c1ccc([N+](=O)[O-])cc1
  Mtb growth: i

Cc1cccc(C(=O)Nc2nc3c(s2)CC(C)CC3)c1 (stereo not given)
  Mtb growth: 11%

O=C(Nc1nc(-c2ccc(F)cc2)cs1)C1CC1c1ccccc1 (stereo not given)
  Mtb growth: 2%

Not all compounds are listed. The share of hits here may be higher or lower than overall.
